D2 agonist: activates the human D2 dopamine receptor; HEK293 T-REx D2 cells, calcium flux agonist mode; activation, % at 2 µM; 0.53% of 340,000 active; AID 485358;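 active = activation over 3 SD above normal in the single-dose calcium agonist read, cut at about 30% in these data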; also: 0% is about no effect
Target sequence (P14416 whole entry, looked up): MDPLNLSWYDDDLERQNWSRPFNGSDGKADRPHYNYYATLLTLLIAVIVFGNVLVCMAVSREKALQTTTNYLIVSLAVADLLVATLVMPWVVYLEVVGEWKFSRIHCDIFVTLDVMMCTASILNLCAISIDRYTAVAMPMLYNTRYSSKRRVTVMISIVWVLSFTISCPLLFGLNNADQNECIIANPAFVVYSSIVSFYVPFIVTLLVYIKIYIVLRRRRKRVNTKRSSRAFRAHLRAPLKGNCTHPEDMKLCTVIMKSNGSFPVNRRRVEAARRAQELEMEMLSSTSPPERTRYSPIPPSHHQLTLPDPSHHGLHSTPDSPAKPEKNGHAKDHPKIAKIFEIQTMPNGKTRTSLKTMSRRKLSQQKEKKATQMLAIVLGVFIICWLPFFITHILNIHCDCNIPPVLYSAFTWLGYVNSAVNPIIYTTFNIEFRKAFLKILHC
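Tetracycline-induced HEK293 Trex cells with D2 receptor force-coupled to calcium signaling, plated overnight at 30 C and loaded with no-wash calcium dye. Calcium flux read kinetically for 180 s after compound addition; responses flag agonists.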
D2 antag: antagonists of human D2 dopamine receptor. P14416. HEK293 TREx D2 cells, calcium flux, dopamine EC80. inhibition, % at 10 µM. 2% of 340,000 active; in the data active = inhibition above about 30%; also: 0% is about no effect
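Overnight-induced (tetracycline, 30 C) HEK293 T-REx cells carrying force-coupled D2 receive a no-wash calcium dye, then compound, then EC80 dopamine at 180 s; signals are read kinetically throughout.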
D1 potentiator: potentiators of human D1 dopamine receptor. 0.036% of 360,000 active. potentiation, % at 10 µM. HEK293 TREx D1 cells, calcium flux, dopamine EC20 potentiation; in the data active = potentiation above about 30%; also: 0% is about no effect
Target sequence (P21728 whole entry, looked up): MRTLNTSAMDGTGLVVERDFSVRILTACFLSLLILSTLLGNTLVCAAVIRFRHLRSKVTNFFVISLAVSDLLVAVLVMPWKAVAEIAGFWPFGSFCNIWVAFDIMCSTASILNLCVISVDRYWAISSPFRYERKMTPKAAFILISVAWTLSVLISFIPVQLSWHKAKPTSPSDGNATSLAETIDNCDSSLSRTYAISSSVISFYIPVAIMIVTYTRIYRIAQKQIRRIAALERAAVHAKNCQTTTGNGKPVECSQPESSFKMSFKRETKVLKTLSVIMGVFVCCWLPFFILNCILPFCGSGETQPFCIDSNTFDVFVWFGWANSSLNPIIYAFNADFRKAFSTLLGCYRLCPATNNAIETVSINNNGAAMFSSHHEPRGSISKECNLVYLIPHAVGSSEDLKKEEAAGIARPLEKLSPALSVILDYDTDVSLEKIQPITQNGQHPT
TRHR ag: agonists of human TRH receptor; TRHR cells, calcium flux fluo-8, FDSS agonist mode; activation, % at 2 µM; 0.18% of 360,000 active; P34981; also: 0% is about no effect
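In this calcium-flux screen, cells bearing human TRHR are dye-loaded with fluo-8, baselined for 10 cycles, then exposed to library compounds; positive kinetic calcium responses during the agonist phase mark hits, with TRH as control.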
D2 potentiator: positively modulates the human D2 dopamine receptor allosterically; HEK293 T-REx D2, calcium flux, EC20 dopamine potentiation; P14416; 0.34% of 340,000 active; potentiation, % at 10 µM;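 active = potentiation over 3 SD above the plate norm, cut at about 30% in these data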; also: 0% is about no effect
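Calcium flux readout, no-wash dye, 1 read/s. Inducible HEK293 Trex D2 line, overnight 30 C. Compound alone 180 s (agonist flags), then EC20 dopamine, another 180 s to score potentiation.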
D1 antag: antagonists of human D1 dopamine receptor | activity change, negative = inhibition, % at 10 µM | 3.2% of 360,000 active | P21728 | HEK293 TREx D1 cells, calcium flux, dopamine EC80; hits give low values; in the data active = activity change below about -30%; also: % is scaled to controls: 0 for no effect and ±100 for the full control effect
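Allosteric or orthosteric antagonism assessed as attenuation of the calcium response to EC80 dopamine, added 180 s after compound, in induced HEK293 Trex D1 cells loaded with no-wash calcium dye.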
TRHR PAM: TRH receptor (human) allosteric enhancement | 0.66% of 360,000 active | TRHR cells, fluo-8 calcium fluorescence, EC20 TRH enhancement | AID 493056 | enhancement, % at 2 µM; in the data active = enhancement above about 30%; also: 0% is about no effect
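Enhancer read-out: after compound pinning and an initial kinetic agonist-mode read, an EC20 of TRH (10 nM final) was injected and fluo-8 calcium signal (Ex 480/Em 530) followed at 1 s/cycle for 100 cycles in TRHR-expressing cells.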
D1 ag: activates the human D1 dopamine receptor; activation, % at 2 µM; 1% of 360,000 active; P21728; AID 504660; HEK293 T-REx D1 cells, calcium flux, agonist mode; also: 0% is about no effect
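Inducible HEK293 T-REx D1 cells, force-coupled to calcium signalling, were plated at 4000 cells/well with tetracycline and held overnight at 30 C. After no-wash calcium dye loading, compound-evoked calcium rise over 180 s flagged agonists.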
An asterisk follows results filed as active; . = no result given; & = joins results of further samples. Rule as the data show it, unless noted: active = activation above about 30%; inactive = the rest. Not all compounds are listed; count on the stated rates, not on these rows.

SMILES	D2 agonist	D2 antag	D1 potentiator	TRHR ag	D2 potentiator	D1 antag	TRHR PAM	D1 ag
CCCOc1cccc(C2C(C(=O)c3ccc(C)o3)=C(O)C(=O)N2CCN2CCOCC2)c1 (centres undefined)	-0.7	-1	1	0.0	0	-2	2	1
COc1c(F)c(F)c(C(=O)Nc2cccc(Cl)c2N2CCOCC2)c(F)c1F	0.4	12	8	0.3	7	-2	9	0
Cc1nn(CCCC(=O)NCc2ccccc2Cl)c(=O)c2nccn12	0.0	11	-10	0.2	14	-8	2	1
CCCN(CCC)CCSc1nc(O)c(C(C)C)c(=O)[nH]1	-0.1	-21	-1	0.2	-3	28	-3	3
CC(NS(=O)(=O)c1ccc(OCC(=O)N2CCOCC2)c(Cl)c1)c1ccccc1 (centres undefined)	0.1	3	-3	4.6	-2	-3	-5	10
CC(C)=CCCC(C)CN1CCC(N2CCC(C(=O)NC(C)C)CC2)CC1 (centres undefined)	-1.8	2	-3	-0.1	-5	-22	-3	2
Cc1ccc(/C=C2/Sc3ccc(C(=O)N4CCN(C)CC4)cc3NC2=O)cc1	1.5	-2	-24	1.2	7	-82*	29	17
CN1CCN(c2nc3c(S(=O)(=O)c4ccc(Cl)cc4)nnn3c3ccsc23)CC1	-0.2	.	0	0.3	4	22	-1	4
CCOc1ccc(NC(=O)CSc2nc(-c3ccc(F)cc3)cc(C(F)(F)F)c2C#N)cc1	1.2	.	-8	2.9	-6	-13	1	8
Cc1nnc(N2C(=O)C(=O)/C(=C(/O)c3ccc4c(c3)CC(C)O4)C2c2ccccc2F)s1 (centres undefined)	0.1	2	-4	1.0	8	-8	13	6
CCCOc1ccc(C(O)C(CN2CCOCC2)c2ccccc2)cc1 (centres undefined)	-0.1	18	3	0.0	-5	2	-2	2
Fc1cccc(CSc2ccc3nnc(-c4cccnc4)n3n2)c1	-1.0	19	-13	1.4	10	-12	-5	-1
CCOC(=O)CSc1nc2ccccc2n2c(C)nnc12	0.7	8	6&0	0.3&0.7	18&8	2&-1	11&-3	2&1
CCOC(=O)c1c(NC(=O)CSc2ncnc3[nH]ncc23)sc2c1CCC(C)C2 (centres undefined)	0.2	2	3	0.1	1	7	-5	2
NC(=O)c1ccc(S(=O)(=O)N2CCSCC2)cc1	0.9	-2	2	0.1	-1	-4	-3	2
Cc1ccc(-c2cc(C(=O)Nc3ccc4c(c3)OCCO4)c3ccccc3n2)cc1	-0.3	21	4	0.2	-7	5	-1	5
O=C(c1ccccn1)N1CCN(S(=O)(=O)c2ccccc2)CC1	-0.2	16	0	0.3	3	-13	0	-2
CCOC(=O)c1cc(C(=O)OCC)c(=O)[nH]c1N1CCCC1	-0.3	12	5	0.0	12	-13	11	0
c1cncc(CNc2cccc(-c3nc4ccccc4[nH]3)c2)c1	0.1	-8	0	-0.2	-3	-20	0	3
COc1cc2[nH]c(=S)n(Cc3cccs3)c(=O)c2cc1OC	0.7	-18	2	0.4	1	3	-3	0
Cc1cccn2c(=O)c3cc(C(=O)NCC4CCCO4)c(=N)n(C4CCCC4)c3nc12 (centres undefined)	-0.4	-3	-2	-1.9	2	-4	-7	1
O=S(=O)(Nc1cccnc1)c1ccc(Br)c2ccccc12	-1.4	-7	5	-0.5	3	-7	-8	2
O=C(O)CC(NC(=O)c1sc2ccccc2c1Cl)c1ccc(OC2CCCC2)cc1 (centres undefined)	-0.6	7	2	0.0	-1	-5	1	1
Cc1c(C(=O)Nc2c(F)cc(F)cc2Br)sc2ncn(CC(=O)N3CCCC3)c(=O)c12	-0.2	-17	-2	-0.4	1	-3	0	1
O=C(C1=C(O)C(=O)N(CC2CCCO2)C1c1ccccc1Cl)c1ccco1 (centres undefined)	.	.	-3	0.0	.	4	8	2

One compound at a time, as listed above. Values in the order: D2 agonist	D2 antag	D1 potentiator	TRHR ag	D2 potentiator	D1 antag	TRHR PAM	D1 ag
CCCOc1ccc(C(O)C(CN2CCOCC2)c2ccccc2)cc1 (centres undefined) is entered as -0.1	18	3	0.0	-5	2	-2	2
O=C(C1=C(O)C(=O)N(CC2CCCO2)C1c1ccccc1Cl)c1ccco1 (centres undefined) is entered as .	.	-3	0.0	.	4	8	2
CN1CCN(c2nc3c(S(=O)(=O)c4ccc(Cl)cc4)nnn3c3ccsc23)CC1 is entered as -0.2	.	0	0.3	4	22	-1	4
CCOC(=O)CSc1nc2ccccc2n2c(C)nnc12 is entered as 0.7	8	6&0	0.3&0.7	18&8	2&-1	11&-3	2&1
CC(NS(=O)(=O)c1ccc(OCC(=O)N2CCOCC2)c(Cl)c1)c1ccccc1 (centres undefined) is entered as 0.1	3	-3	4.6	-2	-3	-5	10

Next part
SMILES	D2 agonist	D2 antag	D1 potentiator	TRHR ag	D2 potentiator	D1 antag	TRHR PAM	D1 ag
Cc1ccc(N(C(=O)c2csnn2)C(C(=O)NC2CCCCC2)c2ccccn2)cc1 (centres undefined)	2.3	14	10	1.0	6	0	1	2
Cc1cc2nc(CN(C)Cc3c(C(=O)N(C)C)nc4ccc(Cl)cn34)[nH]c2cc1C	0.2	13	-4	-0.8	5	-10	-3	0
COc1cc([N+](=O)[O-])cc2sc(NC(=O)C3CC3)nc12	-0.5	10	-2	-0.3	-3	-5	4	1
C=CCn1c(CCNC(=O)c2ccccc2F)nnc1SCC(=O)Nc1ccc(OC)cc1	0.1	-9	-2	-0.8	1	9	-3	1
CCC(=O)Nc1ccc(-c2nn3c(C)nnc3s2)cc1C	0.9	9	4	0.2	-11	-9	2	2
Cc1noc(NS(=O)(=O)c2ccc(N3C(=O)c4ccccc4C3=O)cc2)c1C	-1.7	-13	-3	0.5	2	-4	4	2
c1ccc(CNc2nc3c(-c4ccccc4)nnn3c3ccccc23)cc1	0.7	.	0	0.3	4	-5	5	-1
Cc1cc2c(cc3c(=O)n(CC(=O)NCc4ccccc4Br)ncn32)s1	-0.2	.	-5	0.0	-1	12	-2	-1
Cc1cccc(NC(=O)c2ccccc2NC(=O)c2ccco2)c1	0.4	0	1	-0.8	4	8	2	0
Cc1nnc(NC(=O)CSc2ccccc2N)s1	-0.1	-1	2	0.0	-1	18	2	2
Cc1ccc(C(=O)OCC(=O)Nc2cccc(S(=O)(=O)NC3=NCCCCC3)c2)c(C)c1	-0.5	2	-4	-0.5	13	-8	25	5
CCOC(=O)N1CCN(C(=O)CNC2CCCCCCC2)CC1	0.8	-16	-1	0.7	14	3	-4	3
CCOc1cccc(C2/C(=C(\O)c3ccc4c(c3)OCCO4)C(=O)C(=O)N2Cc2ccncc2)c1 (centres undefined)	0.7	1	-2	0.2	2	-8	3	5
COCCn1c(=NC(=O)CSCC(=O)Nc2cc(C)on2)sc2cc(C(=O)OC)ccc21	-0.1	6	0	-1.2	21	2	-1	1
Cc1noc(C)c1CSc1nc2ccccc2c(=O)n1-c1ccccc1	.	.	-5	-0.4	.	0	3	2
COc1ccccc1NC(=O)c1sc2ncn(CC(=O)N3CCC(C)CC3)c(=O)c2c1C	-0.9	2	-5	0.1	2	4	0	4
CN(C)CCN(C(=O)C1CCCCC1)c1nc2cc3c(cc2s1)OCO3	1.3	-6	-4	1.7	-4	3	-6	2
Cc1nc(N2CCN(C(=O)c3ccco3)CC2)c2c3c(sc2n1)CC(C)CC3 (centres undefined)	-0.5	-2	4	-0.8	10	9	-8	0
Cc1cc(=O)n2nc(N3CCCC3C(=O)Nc3cccc(Cl)c3C)sc2n1 (centres undefined)	0.2	14	-7	0.2	-5	6	0	2
COc1ccc(OC(=O)c2cccnc2)cc1	-0.3	3	-2	0.5	-4	6	13	0
O=C(CSc1nc2ccccc2nc1Cc1ccc(Cl)cc1)NCCc1ccccc1	0.7	.	-2	0.1	15	-9	-4	1
Cc1ccc2oc(=O)cc(CN3CCOCC3)c2c1	0.0	-7	3	-0.7	1	4	2	2
COc1ccc(NC(=O)c2cc3c([nH]c2=O)CC(c2ccccc2)CC3=O)cc1 (centres undefined)	2.1	.	0	0.8	-4	-2	1	3
O=S(=O)(Nc1ccc2c(c1)OCCO2)c1ccc2oc3ccccc3c2c1	0.2	-5	0	0.4	11	-20	4	12
O=C(Nc1ccc(F)cc1)c1cc(-c2ccccn2)nc2c(Cl)cccc12	0.9	1	-2	0.8	-8	15	-1	8
Carrying on.
SMILES	D2 agonist	D2 antag	D1 potentiator	TRHR ag	D2 potentiator	D1 antag	TRHR PAM	D1 ag
CCOc1ccc(/C(O)=C2/C(=O)C(=O)N(c3ccccn3)C2c2ccc(C)cc2)c(C)c1 (centres undefined)	-0.4	15	4	-0.8	-5	5	-7	2
COCCN(CCOC)C(=O)c1cc2c(=O)n3ccccc3nc2s1	0.3	-7	-2	-1.0	-1	7	0	3
Cc1nn2c(-c3cccc(NC(=O)CSc4nc5ccccc5o4)c3)nnc2c2ccccc12	0.7	18	-10	0.4	10	-1	3	3
Cc1cc(NC(=O)CSc2nc3c(C)cccc3cc2C#N)no1	1.9	-1	5	3.0	-4	4	3	0
CC(=O)N/C(=C\c1ccccc1)C(=O)OC(C)C(=O)N(C)c1ccccc1 (centres undefined)	-0.2	3	-3	0.1	7	3	-4	3
CCOc1ccc(Nc2nc3ccccc3c(=O)s2)cc1	4.2	-4	-6	-0.1	-6	-23	0	3
Cc1cc(N2C(=O)C(O)=C(C(=O)c3ccco3)C2c2ccc(Cl)cc2)no1 (centres undefined)	0.2	9	2	0.2	-4	-15	4	1
CC(C)CCn1c(=O)c2ccccc2n2c(CN(C)Cc3ccccc3)nnc12	0.5	-10	-11	-0.1	20	8	-2	2
CC(=O)c1cn(CC(=O)Nc2ccc(C)c(C)c2)c2ccccc12	1.6	10	0	2.0	8	-1	-3	11
C=CCN1C(=O)/C(=C2/Sc3ccc(OC)cc3N2C)SC1=Nc1cccc(O)c1	-0.3	8	0	-0.2	-8	2	-2	2
CC(C)Cc1c(O)nc(SCCN2CCOCC2)[nH]c1=O	-0.3	-10	1	0.0	-4	15	0	1
Cc1cc(NC(=O)CSc2ncc(C(=O)Nc3ccc(Cl)cc3)c(=O)n2C)no1	0.7	.	-2	0.5	-4	.	0	-3
CCOC(=O)/C(=N/O)C1=NC(C)(C)Cc2cc(C)c(C)cc21	-0.2	-3	1	-0.5	11	1	-2	0
Cc1cc(C)n(-c2ccc(Oc3ccccc3)c(S(=O)(=O)O)c2)n1	0.2	5	-9	2.8	-4	3	8	4
O=C1C(=O)N(CCN2CCOCC2)C(c2cccc(Cl)c2)/C1=C(\O)c1ccc2c(c1)OCCO2 (centres undefined)	1.0	-6	0	-0.5	-2	0	-1	1
O=C(C1=C(O)C(=O)N(CCN2CCOCC2)C1c1cccc(Br)c1)c1cc2ccccc2o1 (centres undefined)	-0.2	-1	0	-1.3	18	10	3	5
O=C(CSc1ncnc2ccccc12)Nc1cccc(S(=O)(=O)N2CCOCC2)c1	2.1	20	0	-0.3	-3	5	-5	12
CC1CCN(CCCn2c(=S)[nH]c3ccc(N4CCOCC4)cc3c2=O)CC1	-0.6	-35	0	0.1	-10	11	-2	1
C=CCn1c(SCC(=O)Nc2ccccc2F)nnc1C(C)NC(=O)c1ccccc1F (centres undefined)	0.1	7	-2	-0.4	-12	-9	21	0
COc1ccc(CCn2c(=S)[nH]c3ccc(N4CCOCC4)cc3c2=O)cc1OC	5.6	-5	7	-1.1	1	10	4	2
CCc1nc(SCC(=O)NCC2CCCO2)c2c(=O)n(C)c(=O)n(C)c2n1 (centres undefined)	1.8	0	-1	0.9	3	-22	-3	3
COCCOc1cc(N)c(Cl)cc1Cl	0.0	7	2	0.4	-1	-7	3	2
CCOC(=O)C1CCN(C(=O)c2ccc3c(c2)NC(=O)/C(=C/c2ccccc2)S3)CC1	-0.3	14	0	1.3	-2	-20	-3	6

From PubChem BioAssay
